High-throughput results from PubChem BioAssay.
PV pol inh = poliovirus RdRp elongation inhibitors, primary screen, biochemical, fluorescence polarization, total intensity; 0.66% of 150,000 active; poliovirus polymerase elongation; active compounds read low; % elongation, % (compound at 16.7 µg/mL); in the data active = % elongation below about 90%; note: some results filed as inactive read as strong as hits
Target sequence (P03300 1749-2209 limits assumed): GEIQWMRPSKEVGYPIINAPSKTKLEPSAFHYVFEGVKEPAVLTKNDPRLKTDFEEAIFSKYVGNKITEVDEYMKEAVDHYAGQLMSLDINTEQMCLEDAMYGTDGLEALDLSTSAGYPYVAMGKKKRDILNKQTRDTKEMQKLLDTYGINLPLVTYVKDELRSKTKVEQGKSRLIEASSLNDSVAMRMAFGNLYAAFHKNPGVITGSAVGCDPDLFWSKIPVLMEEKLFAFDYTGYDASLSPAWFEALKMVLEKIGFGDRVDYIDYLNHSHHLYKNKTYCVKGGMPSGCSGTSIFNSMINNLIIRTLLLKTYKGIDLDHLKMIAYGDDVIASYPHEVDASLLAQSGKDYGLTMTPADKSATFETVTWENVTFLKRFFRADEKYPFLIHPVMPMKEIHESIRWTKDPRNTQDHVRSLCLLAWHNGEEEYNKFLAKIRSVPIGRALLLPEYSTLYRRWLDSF
PV pol inh intensity = also measured in PV pol inh; calls as there; % elongation; measured here: total intensity read-out; formula for this scale not given here;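 total fluorescence in place of polarization; lower means less elongation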
* = called active by the depositor. Only part of the results is shown. The share of hits here may be higher or lower than overall.

SMILES	PV pol inh	PV pol inh intensity
Cc1ccc(C)c(Cn2c(=O)n(CCc3ccccc3)c(=O)c3c(C)c(C)sc32)c1	109.0	112.0
CCc1ccc(-c2cc3c(N4CCN(c5ccccc5)CC4)nccn3n2)cc1	98.0	104.0
Cc1ccccc1Nc1nn2c(=O)c3ccc(C(=O)NCCc4ccc(Cl)cc4)cc3nc2s1	98.0	104.0
CCOc1ccc(C2C(C(=O)Nc3ccccc3)=C(C)Nc3nc(SCc4cccc(OC)c4)nn32)cc1 (centres undefined)	106.0	107.0
Cc1cccn2c(=O)cc(COc3cccc(NC(=O)c4cccc(Cl)c4)c3)nc12	111.0	108.0
CCC(CC)C(=O)N1CCc2cc(OC)c(OC)cc2C1COc1ccc2c(C)cc(=O)oc2c1 (centres undefined)	108.0	111.0
COc1cccc(CNc2nccn(-c3ccc(OC)c(OC)c3)c2=O)c1	111.0	98.0
COc1ccc(NC(=O)CC2Nc3cccc4cccc(c34)NC2=O)cc1 (centres undefined)	90.0	94.0
COc1ccc(Cl)cc1NC(=O)Cn1nnc(C(=O)NCc2ccc3c(c2)OCO3)c1N	110.0	109.0
Cc1cccc(N2CCN(C(=O)Cn3nc(C)c4sc5ccccc5c4c3=O)CC2C)c1 (centres undefined)	106.0	93.0
CCc1ccc(NC(=O)Cn2ncn3c(cc4ccccc43)c2=O)cc1	112.0	111.0
O=C(Nc1ccc(O)c(-c2nc3ccccc3o2)c1)c1cccs1	107.0	109.0
COc1ccc(OC)c(NC(=O)Cn2cc(C(=O)c3ccc(Cl)cc3)c(=O)c3cc(OC)ccc32)c1	104.0	108.0
Cc1onc(-c2ccccc2Cl)c1C(=O)Oc1ccccc1F	106.0	105.0
COc1cccc(N2CCN(C(=O)c3ccc(Cn4c(=O)[nH]c5cc(OC)c(OC)cc5c4=O)cc3)CC2)c1	104.0	101.0
CCc1cnc2c(c1SCC(=O)Nc1cc(Cl)ccc1OC)c(=O)n(C)c(=O)n2C	97.0	102.0
CC1=C(c2ccc(C(C)C)cc2)S(=O)(=O)NC1=NCc1ccc(OC(C)C)cc1	109.0	107.0
Cc1ccc(CSCCC(=O)N2CCN(c3ccc(F)cc3)CC2)cc1	107.0	113.0
CCc1ccccc1NC(=O)CSc1ncccc1C(=O)O	101.0	106.0
Cc1cccc(OCC(=O)NCc2ccc3c(c2)CCN3C(=O)c2ccc(Cl)cc2)c1	112.0	109.0
O=C1CC(c2ccccc2)Cc2[nH]c(=O)c(-c3nc(-c4ccc(Cl)cc4)cs3)cc21 (centres undefined)	110.0	118.0
COC(=O)c1c(-c2cccs2)csc1NC(=O)COc1ccc(C)cc1	96.0	86.0
Cc1ccc(-n2c(=O)c3c(c4cc(C)ccc4n3C)n(CC(=O)NCc3ccccc3)c2=O)cc1	97.0	105.0
Cc1ccccc1Cn1cc(S(=O)(=O)c2ccc(Cl)cc2)c(=O)c2cc3c(cc21)OCO3	106.0	109.0
O=[N+]([O-])c1ccc(S(=O)(=O)N2CCn3cccc3C2c2ccccc2F)cc1 (centres undefined)	110.0	103.0

Two entries from above, set out differently.
SMILES: Cc1onc(-c2ccccc2Cl)c1C(=O)Oc1ccccc1F
  PV pol inh: 106.0; PV pol inh intensity: 105.0
SMILES: Cc1ccc(C)c(Cn2c(=O)n(CCc3ccccc3)c(=O)c3c(C)c(C)sc32)c1
  PV pol inh: 109.0; PV pol inh intensity: 112.0

Carrying on:
SMILES	PV pol inh	PV pol inh intensity
COc1ccccc1N1CCN(C(=O)c2cn(C)c3ccc(S(=O)(=O)N(C)C4CCCCC4)cc3c2=O)CC1	107.0	111.0
Cc1ccc(CCNC(=O)c2cn(C)c3ccc(S(=O)(=O)N(C)C4CCCCC4)cc3c2=O)cc1	106.0	109.0
Cc1cc(-c2ccc(C)c(S(=O)(=O)NC(c3cccs3)C(C)C)c2)on1 (centres undefined)	100.0	108.0
Cc1ccc(Cl)cc1NS(=O)(=O)c1ccc2c(c1)NC(=O)CCS2	106.0	103.0
Cc1ccccc1-c1nc2scc(CCNS(=O)(=O)c3ccccc3)n2n1	103.0	107.0
CCCN(CCC)C(=O)c1c[nH]c2ccc(S(=O)(=O)N(C)c3ccc(Cl)cc3)cc2c1=O	102.0	102.0
O=C(CCC1N=C2c3ccccc3N=C(SCc3cccc(F)c3)N2C1=O)NC1CCCCC1 (centres undefined)	101.0	104.0
COc1ccc(-n2nc(C(=O)Nc3cccc(C(F)(F)F)c3)c3c4ccccc4n(C)c3c2=O)cc1	112.0	112.0
COc1ccccc1CNC(=O)c1cccn1-c1nnc(N2CCCC2)s1	112.0	112.0
CC(=O)c1ccc(NC(=O)c2cc(S(=O)(=O)N3CCOCC3)ccc2C)cc1	99.0	103.0
O=C(NC1CCN(Cc2ccccc2)CC1)c1ccc(Cn2c(=O)c3ccccc3n(Cc3ccc(F)cc3)c2=O)cc1	104.0	105.0
Cc1ccc(NC(=O)Cn2cc3c(n2)CCC(C)C3)cc1C (centres undefined)	106.0	105.0
CCN(CC)c1cc(C)c2cc(NC(=O)c3cccc(F)c3)ccc2n1	106.0	108.0
COc1ccccc1N1CCN(C(=O)CCc2nnc3n(C)c(=O)c4sccc4n23)CC1	102.0	98.0
O=C(Cn1c(=O)n(Cc2ccccc2)c(=O)c2sc3ccccc3c21)Nc1ccccc1F	101.0	105.0
CCc1cccc(NC(=O)COc2cc(=O)n(CC)c3ccccc23)c1	100.0	99.0
COc1ccc(C2(N3CCN(c4cccc(C)c4C)CC3)C(=O)c3ccccc3C2=O)cc1	106.0	111.0
CC(C)(C)OC(=O)N1CCC(c2c(C(=O)N3CCc4ccccc4C3)cnn2-c2ccc(Cl)cc2)CC1	110.0	106.0
CCOc1ccccc1NC(=O)c1c(NC(=O)COc2ccccc2)sc2c1CCCC2	106.0	111.0
Cc1ccc2c(c1)N(C(=O)c1ccc(F)cc1)C(C)(C)CC2(C)c1ccccc1 (centres undefined)	106.0	109.0
Cn1nc(-c2ccc(N3CCCCC3)c(NC(=O)c3ccc(Cl)cc3)c2)c2ccccc2c1=O	109.0	112.0
CCc1ccccc1NC(=O)C1CCN(S(=O)(=O)c2ccccc2)CC1	108.0	112.0
CCCCc1ccc(NC(=O)COc2cccc3c(=O)n(C)ccc23)cc1	112.0	112.0
Cc1ccc(CN(C(=O)c2ccccc2F)c2ccccn2)o1	111.0	124.0
Cc1cccc(Oc2ccc3c(c2)Oc2ccccc2NC3=O)c1	107.0	106.0

In another format: two of the compounds above.
SMILES | PV pol inh | PV pol inh intensity
CCCN(CCC)C(=O)c1c[nH]c2ccc(S(=O)(=O)N(C)c3ccc(Cl)cc3)cc2c1=O | 102.0 | 102.0
Cc1cccc(N2CCN(C(=O)Cn3nc(C)c4sc5ccccc5c4c3=O)CC2C)c1 (centres undefined) | 106.0 | 93.0

(further entries)
SMILES	PV pol inh	PV pol inh intensity
CCOc1ccccc1CNC(=O)CCCn1nc(C)c2sc3ccccc3c2c1=O	111.0	115.0
COc1cc(C)ccc1OCCSc1nc2ccc(NC(=O)c3ccc(F)cc3)cc2s1	109.0	114.0
Cc1ccc(NC(=O)CSc2nc3ccc(NC(=O)c4cccs4)cc3s2)cc1	110.0	114.0
CC1=C(C(=O)Nc2cccnc2)C(c2cccc(F)c2)n2nc(SCc3ccccc3)nc2N1 (centres undefined)	111.0	113.0
COc1ccc(/C=C/C(=O)Nc2ccc3nc4c(c(Nc5ccc(OC)c(OC)c5)c3c2)CCCC4)cc1	103.0	102.0
Cc1ccc(CNC(=O)Cc2c(C)c3c(cc(C)c4c(C)coc43)oc2=O)cc1	111.0	101.0
COc1ccc2c(c1)c1c(c(=O)n(-c3ccc(F)c(Cl)c3)c(=O)n1Cc1ccccc1F)n2C	107.0	112.0
O=C(CSc1nc2ccccc2n1Cc1ccccc1)N1CCN(c2ccc(F)cc2)CC1	108.0	109.0
Cc1cccc(N2CCN(S(=O)(=O)c3cc(C(=O)Nc4ccc(Oc5ccccc5)cc4)ccc3F)CC2C)c1 (centres undefined)	102.0	100.0
CN(C)c1ccc(-c2nc3cnccn3c2Nc2cccc(C(F)(F)F)c2)cc1	106.0	109.0
COc1ccccc1CNC(=O)c1cnc2sc(N3CCCCCC3)nn2c1=O	107.0	110.0
CCOc1ccc(-c2nc3c(c(CC)nn3-c3ccccc3)c3cc(OC)c(OC)cc23)cc1	107.0	106.0
CC(C)(C)c1ccc(CSC2=Nc3ccccc3C3=NC(CC(=O)NCc4cccs4)C(=O)N23)cc1 (centres undefined)	103.0	107.0
C=CCc1cccc2cc(C(=O)Nc3ccc(F)cc3)c(=O)oc12	103.0	106.0
Cn1cnc(S(=O)(=O)N2CCC(C(=O)Nc3ccc(OC(F)(F)F)cc3)CC2)c1	113.0	114.0
O=C(CSc1nc(-c2ccccc2)nc2c1CCCC2)c1ccc(F)cc1	105.0	106.0
COc1cc(C2NC(=O)c3c(sc4c3CCN(C)C4)N2)cc(OC)c1OC (centres undefined)	113.0	142.0
Cc1ccc(NC(=O)Cn2c(=O)c3ccc(Cl)cc3n3nncc23)cc1	109.0	113.0
CC(C)c1ccc(NC(=O)C(Cc2ccccc2)NS(=O)(=O)c2ccc3c(c2)CCC(=O)N3)cc1 (centres undefined)	107.0	108.0
COc1ccc(OC)c(CNc2ncnc3c2nc2n3CCCC2)c1	109.0	110.0
CCOc1ccc(NC(=O)CC2C(=O)N(c3ccccc3)C(=O)N2Cc2cccc(OC)c2)cc1 (centres undefined)	110.0	114.0
COc1ccc(CC(=O)Nc2sc3c(c2C(=O)Nc2cccc(C)c2)CCCCC3)cc1	102.0	105.0
Cc1ccc(CNC(=O)c2c(-c3ccccc3Cl)noc2C)o1	112.0	117.0
CCOC(=O)c1c(C)c(-c2ccccc2)n(CC(=O)Nc2cccc(F)c2)c1C	106.0	113.0
COc1cccc(CN2C(=O)c3ccccc3C2C(=O)NCCc2ccccc2)c1 (centres undefined)	108.0	113.0
SMILES	PV pol inh	PV pol inh intensity
Cc1ccc(CCNC(=O)CCS(=O)(=O)c2cc3c(cc2C)NC(=O)CO3)cc1	107.0	105.0
CCOc1ccc2nc(Cl)c(C3CC(c4ccc(C)cc4)=NN3C(=O)CCCC(=O)O)cc2c1 (centres undefined)	104.0	103.0
CCOc1ccc(NC(=O)c2sc3nc4c(cc3c2N)CCCCCC4)cc1	113.0	115.0
Cc1ccc(NC(=O)CN(c2ccccc2)S(=O)(=O)N(C)C)cc1Cl	105.0	109.0
CCOC(=O)N1CCC2(CC1)OC(=O)C(C)=C2C(=O)NCc1ccc(C)cc1	110.0	109.0
CC1=C(C(=O)Nc2ccc(Cl)cc2)C(C(C)C)n2nc(SCc3ccc(Cl)cc3)nc2N1 (centres undefined)	105.0	105.0
COc1cccc(CN2CCc3nc(N4CCN(c5ncccn5)CC4)ncc3C2)c1	97.0	102.0
CSc1ccc(CCNC(=O)CN2C(=O)COc3ccc(S(=O)(=O)N4CCCCCC4)cc32)cc1	108.0	109.0
COc1ccc(C2=CC(c3ccccc3Cl)n3nc(-c4ccc(C)cc4)nc3N2)cc1 (centres undefined)	99.0	104.0
Cc1nn(CC(=O)NCc2ccccc2Br)c(=O)c2cc3occc3n12	111.0	113.0
CCc1ccc(NC(=O)Cn2c(=O)n(-c3cccc(OC)c3)c(=O)c3c(C)c(C(=O)N(C)C)sc32)cc1	101.0	106.0
CCOc1ccc(OCC)c(NC(=O)Cn2nc(CC)n3c(cc4sccc43)c2=O)c1	105.0	107.0
Cc1ccc(Cl)cc1-n1ncc2c(NC3CCCCCC3)ncnc21	113.0	111.0
Cc1cc(C)cc(NC(=O)Cn2c(C)cc(C)c(C#N)c2=O)c1	109.0	111.0
Cc1cc(C)c2oc(C(=O)Nc3c(C(=O)c4ccc(F)cc4)oc4ccccc34)cc(=O)c2c1	112.0	100.0
COC(=O)c1ccc(Cl)cc1NC(=O)N1CC=C(c2c[nH]c3ccccc23)CC1	106.0	277.0
Cc1cc(C)c2nc(N(Cc3cccnc3)C(=O)CCS(=O)(=O)c3ccccc3)sc2c1	112.0	112.0
COC(=O)c1scc(-c2ccc(C)cc2)c1S(=O)(=O)N1CCN(c2ccc(C(C)=O)cc2)CC1	109.0	111.0
CC(C)CN(CC(C)C)CC(O)Cn1cc(/C=C/C(=O)c2ccccc2)c2ccccc21 (centres undefined)	112.0	118.0
Cc1ccc(C)c(Cn2nc(-c3cc(C)ccc3C)ccc2=O)c1	115.0	113.0
Cc1ccc(NC(=O)CCSCCc2ccccn2)cc1	106.0	110.0
Cn1c(COc2ccccc2C(C)(C)C)nc2ccccc21	106.0	108.0
COc1ccc(NC(=O)CCn2c(=O)c3cccn3c3cccnc32)cc1Cl	112.0	111.0
COc1c(C)cc(NS(=O)(=O)c2ccc3c(c2)OCCO3)cc1C	109.0	112.0
O=C(CC1N=C2c3ccccc3N=C(SCC(=O)Nc3ccccc3F)N2C1=O)NCc1ccc2c(c1)OCO2 (centres undefined)	104.0	108.0

Full records as entered above:
`Cc1ccc(C)c(Cn2nc(-c3cc(C)ccc3C)ccc2=O)c1` is entered as PV pol inh: 115.0; PV pol inh intensity: 113.0
`CSc1ccc(CCNC(=O)CN2C(=O)COc3ccc(S(=O)(=O)N4CCCCCC4)cc32)cc1` is entered as PV pol inh: 108.0; PV pol inh intensity: 109.0
`O=C(CC1N=C2c3ccccc3N=C(SCC(=O)Nc3ccccc3F)N2C1=O)NCc1ccc2c(c1)OCO2` (centres undefined) is entered as PV pol inh: 104.0; PV pol inh intensity: 108.0

Continuation.
SMILES	PV pol inh	PV pol inh intensity
CCc1ccc(CN(Cc2ccco2)C(=O)c2ccc(C)cc2)cc1	111.0	114.0
Cc1ccc(N2C(=O)C(CC(=O)Nc3ccccc3)N(CCC3=CCCCC3)C2=O)cc1 (centres undefined)	101.0	102.0
CCN(CC)c1ccc(NC(=O)C2CCN(S(=O)(=O)c3cnc[nH]3)CC2)c(C)c1	102.0	108.0
CCC(Sc1nc2ccccc2c(=O)n1CCc1ccc(OC)c(OC)c1)C(=O)N(CC)CC (centres undefined)	103.0	98.0
Cc1ccc(NC(=O)c2ccc3[nH]c(C)cc(=O)c3c2)c(C)c1	104.0	111.0
CCN(c1ccccc1)S(=O)(=O)c1nnc(NC(=O)c2ccco2)s1	108.0	109.0
CCOC(=O)C1CCCN(C(=O)c2ccccc2NC(=O)c2nsc3ccccc23)C1 (centres undefined)	112.0	107.0
